Screening data deposited in PubChem BioAssay by several laboratories.
HIV Env fusion = inhibitors of HIV Env-mediated cell fusion. HeLa-JRFL Env/CEM21 cell fusion, luciferase. inhibition, % at 12.3 µM. 360,000 tested, 1.1% active. AID 651610;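 active means mean replicate inhibition score of at least 50 and every replicate individually at or above 50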;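 further: 0% = plate neutral controls and 100% = maraviroc near 300 nM; one replicate is shown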
eIF4H inh = inhibitors of RNA binding by human eIF4H; Q15056; eIF4H fluorescence polarization binding assay; inhibition, % at 35 µM; 290,000 tested, 0.94% active;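 active means 50% or more with normal probe brightness, or confirmed in later tests; about a fifth of its hits are not listed in these tables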;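 further: calls also rest on retests at 20 µM and on dose response follow-up; 0% = protein and probe with vehicle and 100% = probe without protein; strong numbers were not always called active; many hits fall short of the cut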
CSC inhib = cancer stem cell inhibition | cancer stem cell-like cells viability, luminescence | 300,000 tested, 1.1% active | inhibition, % at 7.5 µM;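 active means mean at 75% or more and at least half the replicates too; tested in HMLE shEcad cells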;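 further: 0% = median of negative and 100% = median of positive control wells; the first replicate is given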
MT1-MMP act inh = inhibitors of human MT1-MMP activation. P50281. HT1080 RFP-PRO-GFP cells, GFP/RFP ratio fluorescence, overnight; percent of plate control window, DMSO zero. GFP/RFP ratio change, % at 20 µM. 360,000 tested, 0.061% active. AID 651647;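 active means GFP/RFP ratio change of at least 30% with cell ATP level not reduced by more than half and red fluorescence within 50% of control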; further: strong numbers were not always called active
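Compound: 20 µM single dose, 1% DMSO / System: HT1080 RFP-PRO-GFP cells / Controls: DMSO and RFP-L50D-GFP cell wells / Read-out basis: GFP/RFP fluorescence ratio / Schedule: overnight compound exposure at 37 °C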
PABP polyA inh = PABP-poly(A) binding inhibition | P11940 | AID 2014 | 290,000 tested, 1% active | PABP-poly(A) RNA binding, fluorescence polarization | inhibition, % at 35 µM;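 active means 50% or more with normal probe brightness, or confirmed in later tests; about a fifth of its hits are not listed in these tables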;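 further: calls also rest on retests at 20 µM and on dose response follow-up; controls were probe without protein and protein plus probe with vehicle; some compounds called inactive have numbers as strong as hits; many hits fall short of the cut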
Target sequence (P11940 whole entry, looked up): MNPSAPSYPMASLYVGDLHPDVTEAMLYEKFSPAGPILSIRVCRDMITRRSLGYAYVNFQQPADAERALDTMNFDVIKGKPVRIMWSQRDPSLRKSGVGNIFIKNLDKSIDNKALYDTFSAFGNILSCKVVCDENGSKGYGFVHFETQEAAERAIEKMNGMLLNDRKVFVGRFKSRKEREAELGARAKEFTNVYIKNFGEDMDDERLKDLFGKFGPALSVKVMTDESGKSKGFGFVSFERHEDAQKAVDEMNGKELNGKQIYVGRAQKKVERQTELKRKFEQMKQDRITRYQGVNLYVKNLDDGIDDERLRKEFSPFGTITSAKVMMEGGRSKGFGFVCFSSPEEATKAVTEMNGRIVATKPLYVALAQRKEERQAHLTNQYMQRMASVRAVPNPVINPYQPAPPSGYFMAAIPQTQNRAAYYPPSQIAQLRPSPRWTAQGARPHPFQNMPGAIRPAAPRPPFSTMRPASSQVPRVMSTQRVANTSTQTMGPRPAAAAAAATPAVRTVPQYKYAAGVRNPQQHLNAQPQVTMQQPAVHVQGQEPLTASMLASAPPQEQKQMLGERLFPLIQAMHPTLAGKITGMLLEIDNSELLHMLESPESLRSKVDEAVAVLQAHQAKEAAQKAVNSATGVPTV
Rce1 inhib = inhibitors of yeast Ras-converting enzyme | yeast membranes, quenched prenylated peptide cleavage fluorescence | Q03530 | calls only | 290,000 tested, 0.27% active | AID 2563;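 active means fall in fluorescence gain of 50% or more versus controls, with final raw signal at or below 3038400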;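 further: plate controls were neutral control wells for no effect and wells lacking membranes for full effect; tested at 10 µM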
Yeast UUG start = yeast start codon fidelity modulation; S. cerevisiae UUG-firefly luciferase reporter, luminescence/redox ratio; activity score, % at 18.7 µM; 350,000 tested, 0.13% active; AID 602363;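 active means replicate mean at a twofold rise or more, about +100% in these data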;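 further: firefly luciferase made from a UUG start codon reports start codon fidelity; reporter light over untreated wells divided by growth signal over untreated wells; some hits fall short of that in this replicate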
eIF4H inh retest = further read-out of eIF4H inh, marked with its call; inhibition, %; compound at 20 µM; confirmation average;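 mean of two retest wells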
PABP polyA inh retest = further read-out of PABP polyA inh, marked with its call; inhibition, %; compound at 20 µM; confirmation repeats;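 mean of two retest wells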
MT1-MMP act inh RFP = second read-out of MT1-MMP act inh, no call of its own (marks repeat the call); RFP signal change, %; measured here: RFP expression control read;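 0 = vehicle wells; hits needed this value within 50% of zero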
Active calls of the source: *; i = inactive; . = not tested or not shown.

SMILES | HIV Env fusion | eIF4H inh | CSC inhib | MT1-MMP act inh | MT1-MMP act inh RFP | PABP polyA inh | Rce1 inhib | Yeast UUG start | others
O=C(Cn1cnc2ccccc2c1=O)Nc1nnc(C2CC2)s1 | 3 | 0 | -1 | 3 | 3 | 120 | i | -18 | eIF4H inh retest=-2;PABP polyA inh retest=-2
Cc1nc(COC(=O)c2ccc(S(=O)(=O)N3CCCC3)cc2)cs1 | -54 | 8 | -14 | 4 | 5 | -3 | i | -37
Cc1c(Cc2ccccc2)c(=O)oc2cc(OCC(=O)NCc3ccccn3)ccc12 | -8 | -2 | -9 | 1 | -6 | -12 | i | -12
CCOC(=O)C1(CC2CC2)CCN(C(=O)c2cc(C)nc3ccc(CC)cc23)CC1 | 11 | -6 | -2 | 1 | -1 | -1 | i | .
Cc1cccc(C(=O)OC(C)C(=O)N2CCc3ccccc3C2)c1C (configuration not stated) | . | . | 24 | -1 | -4 | . | . | -3
COc1ccc(-n2ncc3c(N4CCN(Cc5ccccc5)CC4)ncnc32)cc1 | 16 | 1 | 37 | -23 | -18 | 3 | i | 5
COC(=O)COc1ccc2c(-c3cccc([N+](=O)[O-])c3)cc(=O)oc2c1 | . | 0 | -5 | -2 | 3 | -4 | i | -7
O=c1nc2ccccc2c2n1CC(CN1CCN(Cc3ccccc3)CC1)N2 (configuration not stated) | . | -9 | -3 | 10 | -1 | -5 | i | -2
O=C(CCNc1ccc(Br)cc1)c1cccc([N+](=O)[O-])c1 | 6 | -4 | 39 | -1 | -9 | 0 | i | .
Cn1c(=O)c2c(nc(-n3ccnc3)n2Cc2ccc([N+](=O)[O-])cc2)n(C)c1=O | . | -3 | -3 | 0 | 6 | -2 | i | -17
COc1cccc(-c2cc3nc(NCCN4CCCC4)n(C)c(=O)c3s2)c1 | -14 | . | . | 1 | 4 | . | . | -6
O=C(NCCc1nc2ccccc2[nH]1)c1cc([N+](=O)[O-])cc([N+](=O)[O-])c1 | . | -8 | . | 2 | -3 | 3 | i | 0
C1=C(CCNc2nnnn2-c2ccccc2)CCCC1 | 32 | 2 | 4 | 2 | -7 | -6 | i | -22
Cc1ccc(C)c(OCC(=O)N2CCc3ccccc3C2)c1 | . | -10 | -7 | -1 | -3 | -7 | i | 20
O=C(Nc1cccnc1)C1CCCN(S(=O)(=O)c2ccccc2)C1 (configuration not stated) | . | 6 | -12 | 3 | 2 | 2 | i | 1
CCOC(=O)c1[nH]c(C)c(C(=O)Nc2cccc(Cl)c2C)c1C | 10 | 60 | -9 | -12 | -14 | -1 | i | -2 | eIF4H inh retest=4;PABP polyA inh retest=0
Cc1ccc(S(=O)(=O)NNC(=O)c2c(O)c3ccccc3[nH]c2=O)cc1 | 7 | -8 | 43 | 2 | -1 | 0 | i | -10
CCCN1CCN(C(=O)c2cc(COc3ccc(F)cc3F)on2)CC1 | -4 | -1 | -2 | 1 | 3 | -2 | i | -18
CN(CCn1ccnc1)C(=O)CC1C(=O)NCCN1Cc1ccccc1C(F)(F)F (configuration not stated) | -6 | 15 | 5 | -3 | 2 | 6 | i | -4
COc1ccc(/C=C(\C#N)C(=O)NC2CCS(=O)(=O)C2)cc1OC (configuration not stated) | -7 | -8 | -15 | 1 | 0 | 20 | i | .

A run of entries of the results above, as a working copy:
SMILES | HIV Env fusion | eIF4H inh | CSC inhib | MT1-MMP act inh | MT1-MMP act inh RFP | PABP polyA inh | Rce1 inhib | Yeast UUG start | others
O=C(Nc1cccnc1)C1CCCN(S(=O)(=O)c2ccccc2)C1 (configuration not stated) | . | 6 | -12 | 3 | 2 | 2 | i | 1
CCOC(=O)c1[nH]c(C)c(C(=O)Nc2cccc(Cl)c2C)c1C | 10 | 60 | -9 | -12 | -14 | -1 | i | -2 | eIF4H inh retest=4;PABP polyA inh retest=0
Cc1ccc(S(=O)(=O)NNC(=O)c2c(O)c3ccccc3[nH]c2=O)cc1 | 7 | -8 | 43 | 2 | -1 | 0 | i | -10
CCCN1CCN(C(=O)c2cc(COc3ccc(F)cc3F)on2)CC1 | -4 | -1 | -2 | 1 | 3 | -2 | i | -18
CN(CCn1ccnc1)C(=O)CC1C(=O)NCCN1Cc1ccccc1C(F)(F)F (configuration not stated) | -6 | 15 | 5 | -3 | 2 | 6 | i | -4
COc1ccc(/C=C(\C#N)C(=O)NC2CCS(=O)(=O)C2)cc1OC (configuration not stated) | -7 | -8 | -15 | 1 | 0 | 20 | i | .

Next records follow:
SMILES | HIV Env fusion | eIF4H inh | CSC inhib | MT1-MMP act inh | MT1-MMP act inh RFP | PABP polyA inh | Rce1 inhib | Yeast UUG start | others
O=C(CSc1ncccc1-c1nc2ccccc2[nH]1)N1CCCCC1 | . | 0 | -13 | -5 | -1 | 2 | i | -27
CN(C(=O)COC(=O)c1cc([N+](=O)[O-])ccc1Cl)c1ccccc1 | 11 | 0 | 3 | -3 | 3 | 5 | i | -7
CN1CCN(CC(O)COc2ccc(C34CC5CC(CC(C5)C3)C4)cc2)CC1 (configuration not stated) | -11 | 4 | . | 5 | -2 | 13 | . | -7
Cc1cc(C)n2nc(N)c(N=Nc3ccc(Cl)cc3)c2n1 | 12 | -8 | 3 | 1 | -3 | -1 | i | .
CCOc1ccc(N(CC(=O)Nc2cccc(N(C)S(C)(=O)=O)c2)S(=O)(=O)c2ccccc2)cc1 | -12 | -5 | 15 | 3 | -3 | 5 | i | .
COc1cc(OC)cc(C(=O)OCC(=O)Nc2nnc(-c3ccccc3)o2)c1 | 3 | . | . | 5 | 5 | . | . | -26
O=C(Cn1nnc(-c2ccccc2F)n1)Nc1ccc2c(c1)OCCO2 | -22 | -1 | . | 5 | 4 | -2 | i | -20
Nc1nnc(/C=C/c2ccccc2Cl)s1 | -41 | -6 | 0 | -8 | -3 | 3 | i | .
COc1cccc(C(=O)NNC(=O)Cc2ccc(Cl)cc2)c1 | 4 | 1 | -7 | 1 | 0 | 5 | i | 15
CCCc1nnc(NC(=O)COC(=O)c2cc(C)nc3ccccc23)s1 | . | -4 | 10 | -1 | -3 | -6 | i | -6
O=C(COC(=O)c1ccc(Br)o1)Nc1ncc(Cl)cc1Cl | 1 | 13 | -5 | 1 | 2 | 1 | i | .
CCc1cccc(C)c1NC(=O)c1ccc2nc(N3CCOCC3)sc2c1 | 12 | 0 | -10 | 0 | -7 | -1 | i | -29
CCOC(=O)C1CCCN(CCC(=O)Nc2ccc3c(c2)CCC3)C1 (configuration not stated) | . | 5 | 3 | 1 | 0 | 4 | i | -14
Cc1ccc2c(N)c(C)ccc2c1 | . | -13 | 41 | -6 | 8 | 8 | i | -8
COc1ccc(S(=O)(=O)N2CCC(NC(=O)c3cccnc3)CC2)cc1 | -3 | 7 | . | 2 | 4 | 1 | i | -16
C(=C\c1ccccc1)/CN1CCN(C(c2ccccc2)c2nnnn2C2CCCC2)CC1 (configuration not stated) | -41 | . | . | 2 | -1 | . | . | -4
O=C1OC(N2CCN(C(=O)c3ccco3)CC2)c2ccccc21 (configuration not stated) | . | 8 | -18 | 2 | 2 | -11 | i | -8
COc1ccc(S(=O)(=O)N2CCOCC2)cc1NC(=O)CSc1nnc(C2CC2)n1N | 3 | -7 | -19 | -3 | 1 | -4 | i | .
Cc1n[nH]c(=O)c2c(NC(=O)CSc3nncn3C(C)C)oc(C)c12 | 7 | . | -16 | 0 | 3 | . | . | -5
CC1Cn2c(CCc3ccccc3)nnc2S1 (configuration not stated) | -5 | -2 | -16 | 1 | 2 | -10 | i | -17
Cc1cc(C)n2nc(C(=O)OCC(=O)Nc3cc(S(=O)(=O)N4CCOCC4)ccc3Cl)nc2n1 | -9 | . | . | 2 | 2 | . | . | 0
CN(C)c1ccc(C(=S)Nc2ccccc2)cc1 | -29 | -7 | 2 | -4 | -2 | 6 | i | .
Cc1ccc(C)c(C(C)NC(=S)NC2CCCCC2)c1 (configuration not stated) | 19 | 7 | 0 | -2 | -7 | -7 | i | -16
O=C(NCCNC(=O)c1ccco1)c1cccc(F)c1 | -43 | 2 | -11 | -4 | -2 | 12 | i | -15
Nc1oc2ccc(F)cc2c(=O)c1C=O | -71 | 2 | -6 | 2 | 3 | -6 | i | .
Cc1cccc(CCN2CCN=C2N(C)C)c1 | -9 | . | -14 | -3 | 4 | . | . | 11
Cc1cc(C)n2nc(CNS(=O)(=O)c3c(F)c(F)c(F)c(F)c3F)nc2n1 | -5 | -12 | 13 | 2 | 1 | -3 | i | -5
CC(C)(O)/C=C/C(=O)[C@](C)(O)C1[C@H](O)C[C@@]2(C)C3CC=C4C(C=C(O[C@@H]5O[C@H](CO)[C@@H](O)[C@H](O)[C@H]5O)C(=O)C4(C)C)[C@]3(C)C(=O)C[C@]12C (some centres not stated) | -26 | . | 2 | 0 | 3 | . | . | -2
Cc1ccc(C(=O)Nc2ccc(S(=O)(=O)N3CCCC3)cc2)s1 | -5 | 1 | 3 | -2 | -1 | 5 | i | .
CC1CCCN(C(=O)Cn2nnc(-c3ccc([N+](=O)[O-])cc3)n2)C1 (configuration not stated) | -7 | 7 | -16 | -1 | -1 | 2 | i | -13
C=CCOc1ccc(C=Nc2cccc(Cl)c2)c(O)c1 | 6 | -3 | 2 | 3 | 6 | 10 | i | .
Cc1nc(N2CCOCC2)nc(Oc2ccccc2F)c1[N+](=O)[O-] | 15 | 10 | -4 | 2 | 0 | 7 | i | .
COc1ccc2c(c1)c(C(C)=O)c(C)n2CCc1ccc(OC)c(OC)c1 | -1 | -1 | -1 | -9 | -2 | 4 | i | 1
CCN(CC)S(=O)(=O)c1cccc(C(=O)N[C@H](C(=O)NCc2ccccc2F)C(C)C)c1 | 6 | 3 | -2 | -6 | -2 | 12 | i | -19
CCS(=O)(=O)N1CCN(c2ccnc3cc(Cl)ccc23)CC1 | -3 | 45 | -12 | 0 | 1 | 27 | i | -19
COc1ccc(/C=C2\SC(=S)N(CCC(=O)NCCc3ccc(O)cc3)C2=O)cc1 | 6 | -9 | -5 | 3 | 0 | 1 | i | -25
O=C1CSC(c2cccc(O)c2)N1Cc1ccccc1 (configuration not stated) | 5 | -5 | 34 | 2 | -4 | -2 | i | .
O=C(NCCNS(=O)(=O)c1ccccc1)c1cc(OCC(F)(F)F)ccc1OCC(F)(F)F | -92 | -7 | 7 | . | . | -4 | . | -12
Cc1c(-c2nc(-c3ccncc3)no2)cccc1[N+](=O)[O-] | 19 | -7 | -15 | 3 | 3 | 7 | i | .
COc1cccc(OC)c1C(=O)Nc1cccnc1 | -7 | -2 | -3 | 2 | 3 | 40 | i | .
OC(c1ccc(Cl)c(Cl)c1)c1ncc(-c2ccccc2Cl)[nH]1 (configuration not stated) | -33 | . | . | -4 | -1 | . | . | 4

Only part of the results is shown; the hit share may differ from the screen's.
